Compound activity deposited in PubChem BioAssay by National Center for Advancing Translational Sciences (NCATS).
Pol eta inh – qHTS for Inhibitors of Polymerase Eta. DNA polymerase eta (Homo sapiens), Q9Y253. recombinant Pol eta, fluorescent DNA replication assay. Potency, µM (top dose mostly 114 µM), without a hit: at the top dose activity change, negative = inhibition, most hits filed as inhibitors. 390,000 compounds, 1.2% hits. AID 588591, 2011; further: potency means the concentration at half of the fitted maximal effect; on the % scale 0 is the no-effect control and ±100 the full control effect
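Pol eta at 10 nM preincubated with compounds 15 min at room temperature; reaction started with fluorescent substrate (50 nM final) and read kinetically at 0 and 10 min.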
GLS inh – qHTS for Inhibitors of Glutaminase (GLS). Glutaminase kidney isoform, mitochondrial (Homo sapiens), O94925. GLS enzymatic activity, qHTS titration. Potency, µM (top dose mostly 45.5 µM), inactives show top-dose activity change, negative = inhibition, most hits filed as inhibitors. 410,000 compounds, 0.21% hits; further: potency means the concentration at half of the fitted maximal effect; on the % scale 0 is the no-effect control and ±100 the full control effect
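Human kidney-isoform GLS in 45 mM KH2PO4 pH 8.2, 0.02% Tween-20, with compound, started with 1mM L-Glutamine (added stock). Glutamate oxidase/HRP/Amplex red coupled fluorescence read at start and after 30 min at RT.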
PI4K2A block – qHTS for small molecular inhibitors of PI4K2A | Phosphatidylinositol 4-kinase type 2-alpha (Homo sapiens), Q9BTU6 | purified PI4K2A, ADP-Glo luminescence, 1 h; active compounds read low | activity change, negative = inhibition, % at 76.9 µM | 420,000 compounds, 0.13% hits; in the data active means activity change below about -50%; inconclusive means mostly about -30% to -49%;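 further: -100% = wells without enzyme as full effect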
Target sequence (Q9BTU6 whole entry, looked up): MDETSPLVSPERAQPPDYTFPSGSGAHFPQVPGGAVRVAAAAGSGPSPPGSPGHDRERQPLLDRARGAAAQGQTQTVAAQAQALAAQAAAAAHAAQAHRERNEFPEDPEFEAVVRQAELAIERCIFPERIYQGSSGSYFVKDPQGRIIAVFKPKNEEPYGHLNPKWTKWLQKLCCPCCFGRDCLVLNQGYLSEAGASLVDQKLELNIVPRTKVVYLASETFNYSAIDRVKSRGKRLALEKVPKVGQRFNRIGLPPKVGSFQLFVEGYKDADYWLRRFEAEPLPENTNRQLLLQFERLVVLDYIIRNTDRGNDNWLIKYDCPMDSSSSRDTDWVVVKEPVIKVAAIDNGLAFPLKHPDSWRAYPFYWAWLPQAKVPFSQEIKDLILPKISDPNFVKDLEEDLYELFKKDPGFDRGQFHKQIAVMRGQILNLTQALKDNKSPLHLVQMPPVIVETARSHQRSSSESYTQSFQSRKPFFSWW
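Compounds are screened against recombinant PI4K2A using PI as substrate and ATP, the latter dispensed at 300 microM. Reactions run one hour at ambient temperature before ADP-Glo detection; full inhibition defined by wells lacking enzyme.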
JMJD2A Tudor – qHTS Assay for Inhibitors of JMJD2A-Tudor Domain | 390,000 compounds, 4.4% hits | AlphaScreen JMJD2A-Tudor / H3K4me3 peptide binding | AID 504339, 2011 | Lysine-specific demethylase 4A (Homo sapiens), O75164 | Potency, µM (series often up to 114 µM), inactives show top-dose activity change, negative = inhibition, hits mostly inhibitors; further: potency means the concentration at half of the fitted maximal effect; on the % scale 0 is the no-effect control and ±100 the full control effect; nearly all actives have a fitted effect of over 50% in size
G9a block – qHTS Assay for Inhibitors of Histone Lysine Methyltransferase G9a; 350,000 compounds, 8.8% hits; G9a H3K9 monomethylation, AlphaScreen, 2 h; AID 504332, 2011; Potency, µM (doses to about 102 µM), without a hit: at the top dose activity, negative = inhibition, hits mostly inhibitors; further: potency means the concentration at half of the fitted maximal effect; on the % scale 0 is the no-effect control and ±100 the full control effect; nearly all actives have a fitted effect of over 75% in size
Target sequence (Q96KQ7 913-1193 limits assumed): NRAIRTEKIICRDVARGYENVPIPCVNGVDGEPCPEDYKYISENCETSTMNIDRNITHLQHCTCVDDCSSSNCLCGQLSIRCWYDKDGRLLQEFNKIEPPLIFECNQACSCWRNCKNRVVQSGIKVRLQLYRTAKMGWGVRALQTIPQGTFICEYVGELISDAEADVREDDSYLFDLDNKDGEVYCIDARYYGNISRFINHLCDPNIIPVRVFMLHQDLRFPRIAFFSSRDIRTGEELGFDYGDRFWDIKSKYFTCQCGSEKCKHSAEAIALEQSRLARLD
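Step 1: enzyme (final 20 nM) with compound, 15 min RT. Step 2: substrate peptide 500 nM and SAM 20 uM, 2 h RT. Step 3: anti-H3K9me1 antibody and AlphaScreen beads, 10 min, then plate read.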
Pin1 inh – qHTS Assay to Find Inhibitors of Pin1 | Peptidyl-prolyl cis-trans isomerase NIMA-interacting 1 (Homo sapiens), Q13526 | Pin1 FP peptide displacement, HiFluor488, 10 min | Potency, µM (titrated, usually from 115 µM), without a hit: at the highest dose activity, negative = inhibition, most hits filed as inhibitors | 390,000 compounds, 0.009% hits; active means well fitted inhibition curve with a large enough effect in the polarisation, with a control signal flat, not every such curve was filed as active; inconclusive means small, poorly fitted or top-dose-only effect, or effect the other way, or a change in a side signal; inactive means no such curve, though single readings can be large or run the other way; the % refers to the polarisation; further: potency means the concentration at half of the fitted maximal effect; on the % scale 0 is the no-effect control and ±100 the full control effect
HP1b chromo inh – HTS for Inhibitors of HP1-beta Chromodomain Interactions with Methylated Histone Tails; Chromobox protein homolog 1 (Homo sapiens), P83916; AlphaScreen HP1-beta / biotin-H3K9me3 peptide binding; Potency, µM (highest dose often 114 µM), for the others: at the highest dose activity change, negative = inhibition, usual class: inhibitors; 390,000 compounds, 0.56% hits; AID 540317, 2011; further: potency means the concentration at half of the fitted maximal effect; nearly all actives have a fitted effect of over 70% in size; inactives centre near 23
Target sequence (P83916 whole entry, looked up): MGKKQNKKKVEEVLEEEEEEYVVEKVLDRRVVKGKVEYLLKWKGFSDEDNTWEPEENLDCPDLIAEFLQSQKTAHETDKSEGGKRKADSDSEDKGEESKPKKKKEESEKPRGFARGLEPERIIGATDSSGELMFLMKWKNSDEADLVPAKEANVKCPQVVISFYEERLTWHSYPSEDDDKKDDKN
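AlphaScreen: HP1-beta (50 nM) preformed 30 min with biotin-H3(1-18)K9me3 peptide (50 nM) in PBS pH 7.4, 0.01% Tween-20. Compound added for 30 min at RT, then streptavidin donor/nickel chelate acceptor beads (10 ug/mL) for 30 min.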
PGK inhibitor – qHTS Assay to Find Inhibitors of Phosphoglycerate Kinase. PGK/GAPDH coupled, Kinase-Glo luminescence, 60 min. 380,000 compounds, 0.043% hits. Potency, µM (top dose mostly 57.5 µM), inactives show at the highest dose activity change, negative = inhibition, most hits filed as inhibitors; further: potency means the concentration at half of the fitted maximal effect; on the % scale 0 is the no-effect control and ±100 the full control effect; nearly all actives have a fitted effect of over 60% in size
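Recombinant glycosomal PGK reaction used 1,3-bisphosphoglycerate generated in-well by GAPDH (100nM final) in 100mM TEA pH 7.6, 5mM MgCl2, 0.01% Tween-20. After 60 minutes at room temperature, ATP was read by Kinase-Glo Plus luminescence end-point.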
Numbers without * were called inactive; i = inactive; ? = inconclusive; · = no result given; [ ] = dose if it differs, or a comment. Unless noted, the call rests on the fitted dose curve; in most records, active means well fitted curve in the direction sought with a large enough effect; inconclusive means small, poorly fitted or top-dose-only effect, or another doubt; inactive means no such curve, though single readings can be large; an effect the other way counts as inactive or inconclusive. Only part of the results is shown; count on the stated rates, not on these rows.

Pol eta inh	GLS inh	PI4K2A block	JMJD2A Tudor	G9a block	Pin1 inh	HP1b chromo inh	PGK inhibitor	smiles
-11%	-2%	3	?	?	11%	?	2%	CC1CCC2C(=O)N(c3ccc(NC4CCCCC4)c([N+](=O)[O-])c3)C(=O)C2C1 (configuration not stated)
-7%	0%	0	-16%	-40%	3%	20%	-5%	Cc1ccc(C)c(N(CC(=O)NC2CCCC2)C(=O)c2cc3cc4cc(C)ccc4nc3s2)c1
-14%	7%	-1	-7%	2%[12.7 µM]	2%	24%	1%	CCCc1nc(NCc2ccccn2)c2nnn(Cc3ccccc3F)c2n1
5%	1%	-2	-2%[57.1 µM]	-5%[59 µM]	11%	22%	-10%	Cc1cc(=O)n2[nH]c(-c3ccccc3Cl)cc2n1
-13%	1%	2	?	·	-4%	?	i	Cc1nn2c(NCCCn3ccnc3)cc(C(C)C)nc2c1-c1ccccc1
-2%	7%	-3	-16%	-5%[59 µM]	17%	7%	-5%	Cc1nc2nc(SCC(=O)NCCc3ccccc3)nn2c(C)c1Cc1c(F)cccc1Cl
-6%	11%	-6	-7%	-11%[59 µM]	2%	23%	-1%	Cn1nnc2cc(C(=O)NC3CCCCC3)ccc21
2%	1%	0	?	16µM*	0%	?	9%	COc1ccccc1-c1nnc(SCCN2CCOCC2)n1-c1ccc(C)cc1
-7%	3%	2	-3%	-2%[59 µM]	-7%	23%	-4%	Clc1ccc(CNC2CCCC2)cc1
-22%	-7%	5	?	?	-4%	?	-11%	Cn1cccc1/C=C(/C#N)c1ccc(F)cc1
-21%	-4%	5	1%	40µM*	1%	26%	-1%	Cc1ccc(-c2nc(N/N=C/c3cccc([N+](=O)[O-])c3)c3ccccc3n2)cc1
-10%	0%	-1	-12%	10%[59 µM]	51%[activator]	19%	-12%	Cc1ccccc1-n1c(SCC(=O)Nc2ccc(Cl)cc2Cl)nc(O)cc1=O
-18%	11%	1	-7%	?	14%	66%[activator]	3%	COc1ccc(OC)c(C2C=C(c3ccc(C)c(C)c3)Nc3nnnn32)c1 (configuration not stated)
-19%	16%	-2	-19%	?	4%	43%[activator]	6%	Cc1cccc(C(=O)OCC(=O)Nc2nnc(-c3ccccc3)o2)c1O
-3%	5%	-3	-4%	-18%[2.33 µM]	-2%	14%	3%	O=C(c1ccncc1)N1CCN(S(=O)(=O)c2cccc(Cl)c2)CC1
-4%	5%	1	?	?	-7%	?	-4%	CC1CCCN(c2cc3c(cc2[N+](=O)[O-])C(=O)N(c2ccccc2)C3=O)C1 (configuration not stated)
-10%	-7%	4	-7%	1%	-5%	9%	-14%	O=C(CSc1ccc2nnc(-c3ccccn3)n2n1)Nc1ccccc1C(F)(F)F
-18%	-8%	-2	?	-25%[59 µM]	2%	?	-1%	O=[N+]([O-])c1ccc(N2CCCC2)cc1NCc1ccccc1
-4%	8%	1	?	3%[12.7 µM]	-9%	29%	-2%	Cc1ccc(NC(=O)CSc2nnc(-c3ccccn3)n2C)cc1
-19%	-4%	2	?	?	-1%	-20%	0%	COc1ccc(Nc2nc(N)c([N+](=O)[O-])c(N3CCCC3)n2)cc1
-25%	6%	2	?	?	9%	?	-10%	Cc1cccc(OCc2nc(C#N)c(NCc3ccccc3Cl)o2)c1
-11%	-12%	-7	?	-38%[59 µM]	?	-4%[57 µM]	2%	O=C(CSc1nccn1Cc1ccc(F)cc1)Nc1ccc2c(c1)OCO2
0%	-2%	0	-11%	13%[12.7 µM]	-2%	6%	i	COCCn1c(C)cc(C(=O)COC(=O)c2[nH]c(C)c(C(C)=O)c2C)c1C
-17%	11%	2	?	?	11%	-20%	i	CCN(CC)c1ccc(/C=N/NC(=O)CNC(=O)c2ccccn2)cc1
-6%	7%	-8	-6%	-8%	3%	30%	0%	Cc1ccc(CSc2nc3c(c(=O)[nH]2)CCC3)cc1
5%	-4%	-7	-7%	-9%[59 µM]	1%	57%[activator]	-1%	CN(Cc1ccccc1)S(=O)(=O)c1ccc(F)c(C(=O)Nc2cccc(Cl)c2Cl)c1
-5%	12%	-1	-31%	1%[0.501 µM]	0%	6%	2%	O=C1/C(=C\Nc2ccc(Cl)cc2)CCN1c1ncccn1
-22%	-7%	1	-17%	0%	2%	37%	i	CC1CCCC(NC(=O)CCCn2ncn3c(cc4occc43)c2=O)C1C (configuration not stated)
-10%	0%	1	-1%	?	-5%	53%[activator]	-3%	CCN(CC)c1nc(C)c(C(C)=O)cc1C#N
-7%	9%	-5	?	?	5%	15%[57 µM]	-9%	Cc1nn(S(=O)(=O)c2ccc(C(C)(C)C)cc2)c(C)c1S(=O)(=O)N1CCC(C)CC1
-19%	-13%	-1	?	2µM*	0%	3%	-5%	COc1ccc(CSCCc2n[nH]c(=S)n2-c2ccccc2)cc1C
-16%	6%	-1	?	-29%[59 µM]	3%	-9%	-13%	CCn1c(C(=O)N2CCCC(C(=O)N3CCN(c4ccccc4)CC3)C2)cc2sccc21 (configuration not stated)
-7%	0%	0	-29%	·	-3%	8%	6%	CC(C)n1cnc2c(Nc3ccc(F)c(Cl)c3)nc(NCCO)nc21
-7%	-4%	-2	-13%	10%[59 µM]	-3%	19%	-5%	Cc1ccc(-n2c3c(c(=O)[nH]c2=O)C(NC(=O)C(C)(C)C)(C(F)(F)F)C(=O)N3)cc1 (configuration not stated)
-8%	7%	-5	4%	?	2%	29%	-4%	CCC(=O)n1nc(-c2ccco2)nc1SCc1ccccc1
-25%	-6%	0	57%[activator]	13%[12.7 µM]	0%	44%[activator]	-10%	COc1ccc(C2CC2/C(=N/OC(=O)c2cccs2)c2ccccc2)cc1 (configuration not stated)
-22%	7%	-8	?	·	0%	32%	-9%	CCOC(=O)c1c(CSC(=N)N)n(-c2ccc(C)cc2)c2cc(Br)c(OC(C)=O)cc12
-1%	6%	1	-15%	12%	5%	40%[activator]	5%	C/C(=C\C(=O)c1ccc(Br)cc1)NNC(=O)c1ccc(O)cc1
-20%	3%	-6	?	2.8µM*	-7%	-56%	-9%	CCN(CC)c1nc2ccccc2c(N)c1-c1ccccc1
2%	4%	-10	-11%	40µM*	-10%	-1%	0%	Cc1ccccc1-c1nc(C#N)c(NCc2ccco2)o1
-11%	-6%	4	5%	?	8%	19%	-4%	COc1ccc(NC(=O)c2sc3ncn(CC(=O)N4CCCCC4)c(=O)c3c2C)cc1OC
22µM*	-11%	-21	?	·	?	-12%	-5%	O=C(Cn1cnc2scc(-c3ccccc3)c2c1=O)NCc1ccco1
2%	-5%	4	-5%	5%[12.7 µM]	-4%	48%[activator]	-10%	Cc1ccc(-n2nnc3ccccc3c2=O)cc1C
-18%	11%	1	?	-44%[59 µM]	-1%	-36%	-2%	COCCn1c(C)cc(C(=O)CSc2ccc3ccccc3n2)c1C
?	-4%	-3	?	0%	-1%	-13%	i	O=C(O)c1ccc2c(=O)n3c(nc2c1)/C(=C/c1ccc(C(F)(F)F)cc1)CC3
-24%	?	-1	-34%	50µM*	2%	?	4%	CCOC(=O)c1ccc(NCCc2ccc(OC)c(OC)c2)c(N)c1
-15%	21%	6	-29%	?	-1%	0%	-1%	CCOc1ccc2c(c1)C(C)=CC(C)(C)N2C(=O)Nc1ccccc1F
-23%	-5%	0	?	14µM*	?	-4%	8%	C=CCn1c(-c2cc(-c3ccc(C)cc3)nc3ccccc23)n[nH]c1=S
-11%	-4%	-4	?	18µM*	-4%	?	-3%	O=C(c1ccc(F)cc1)N1CCN(c2cc(N3CCCCC3)c(F)cc2[N+](=O)[O-])CC1
-13%	6%	0	?	-14%	-9%	-18%	-7%	COc1ccc(CCNc2ccc(N3C(=O)CC(C)C3=O)cc2[N+](=O)[O-])cc1 (configuration not stated)
-2%	12%	-3	-17%	17%[12.7 µM]	-7%	23%	3%	CSc1ccccc1NC(=O)CN1c2ccccc2CC1C (configuration not stated)
-28%	52%[activator]	5	-13%[57.1 µM]	11µM*	0%	42%	0%	O=C(NC(=S)N1CCCCC1)c1cccnc1
-17%	5%	-2	-24%	?	?	?	10%	Cc1ccc(CNc2nccn(-c3cc(C)cc(C)c3)c2=O)cc1
-6%	10%	0	-35%	·	0%	41%[activator]	-2%	Nn1c(SCc2ccc(Br)cc2)nnc1-c1ccccn1
0%	73%[activator]	-23	?	45µM*	-19%	-18%	8%	CCNC(=O)N1c2ccc(OCC)cc2C(C)=CC1(C)C
-11%	-1%	0	?	8.9µM*	-7%	16%	-10%	COc1ccccc1OCC#CCNC1CCCCC1C (configuration not stated)
5%	-1%	3	-15%	?	-1%	2%	0%	COC(CN1C(=O)C(O)=C(C(C)=O)C1c1ccccn1)OC (configuration not stated)
?	9%	-10	?	10µM*	?	?	-1%	CCN1C(C(=O)c2ccccc2)=C(Nc2ccccc2C)c2ccccc2S1(=O)=O
-18%	40%[activator]	0	-16%	?	3%	22%	-7%	Cc1cc(S(=O)(=O)Nc2cc3c(cc2N2CCOCC2)n(C)c(=O)n3C)ccc1F
-12%	-7%	1	-11%	?	-14%	24%	0%	CC1CCc2c(sc(NC(=O)CSc3nnc(-c4ccccc4)o3)c2C#N)C1 (configuration not stated)

Shown with values under each structure: two of the compounds above.
Each structure is followed by: Pol eta inh, GLS inh, PI4K2A block, JMJD2A Tudor, G9a block, Pin1 inh, HP1b chromo inh, PGK inhibitor
> CCN1C(C(=O)c2ccccc2)=C(Nc2ccccc2C)c2ccccc2S1(=O)=O
  ?, 9%, -10, ?, 10µM*, ?, ?, -1%
> Cc1cc(S(=O)(=O)Nc2cc3c(cc2N2CCOCC2)n(C)c(=O)n3C)ccc1F
  -18%, 40%[activator], 0, -16%, ?, 3%, 22%, -7%
